High-throughput results from PubChem.
Sfp PPTase inh = inhibitors of Bacillus subtilis Sfp phosphopantetheinyl transferase; Biochemical Sfp PPTase activity, qHTS; 310,000 compounds, 3.5% hits; Potency, µM, without a hit: max response, negative = inhibition, most hits filed as inhibitors; Q9F4F7; active means well fitted inhibition curve with a large enough effect; inconclusive means small, poorly fitted or top-dose-only effect, or another doubt; inactive means no such curve, though single readings can be large or run the other way;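 further: the enzyme is Sfp with the accession as filed and its product quenches rhodamine fluorescence; potency means the concentration at half of the fitted maximal effect; 0% = enzyme reaction without inhibitor and -100% = no enzyme wells; top concentration of the series not given in the record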
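Compounds were incubated with enzyme (final 15 nM) for 15 min at room temperature before substrate addition started the reaction. Fluorescence at 525 nm excitation, 598 nm emission was recorded immediately and after 30 minutes.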
CtBP-E1A inh = CtBP/E1A binding inhibition; AlphaScreen GST-E1A/His-CtBP binding, 1536-well; hits give low values; control for the full effect not named in the record; activity change, % (test concentration not listed); 340,000 compounds, 0.49% hits; in the data active means activity change below about -65%; inconclusive means about -30% to -65%; inactive means above about -30%; further: on the % scale 0 is the no-effect control and ±100 the full control effect
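Homogeneous bead-based format: GST-tagged E1A captured on glutathione donor beads, His-tagged CtBP on nickel acceptor beads; compounds precede bead addition by 2 h at 37 °C.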
TRPV1 potentiator = potentiators of human vanilloid receptor 1 (TRPV1). Q8NER1. TRPV1-expressing cells, Fluo-8 calcium influx, capsaicin EC20 potentiation; host cell line not named in the record; control for the full effect not named in the record. potentiation, % at 8.33 µM. 320,000 compounds, 0.02% hits. AID 540277; active means potentiation above 80%; inconclusive means 30% to 80%; inactive means below 30%; further: 0% is about no effect
Target sequence (Q8NER1 whole entry, looked up): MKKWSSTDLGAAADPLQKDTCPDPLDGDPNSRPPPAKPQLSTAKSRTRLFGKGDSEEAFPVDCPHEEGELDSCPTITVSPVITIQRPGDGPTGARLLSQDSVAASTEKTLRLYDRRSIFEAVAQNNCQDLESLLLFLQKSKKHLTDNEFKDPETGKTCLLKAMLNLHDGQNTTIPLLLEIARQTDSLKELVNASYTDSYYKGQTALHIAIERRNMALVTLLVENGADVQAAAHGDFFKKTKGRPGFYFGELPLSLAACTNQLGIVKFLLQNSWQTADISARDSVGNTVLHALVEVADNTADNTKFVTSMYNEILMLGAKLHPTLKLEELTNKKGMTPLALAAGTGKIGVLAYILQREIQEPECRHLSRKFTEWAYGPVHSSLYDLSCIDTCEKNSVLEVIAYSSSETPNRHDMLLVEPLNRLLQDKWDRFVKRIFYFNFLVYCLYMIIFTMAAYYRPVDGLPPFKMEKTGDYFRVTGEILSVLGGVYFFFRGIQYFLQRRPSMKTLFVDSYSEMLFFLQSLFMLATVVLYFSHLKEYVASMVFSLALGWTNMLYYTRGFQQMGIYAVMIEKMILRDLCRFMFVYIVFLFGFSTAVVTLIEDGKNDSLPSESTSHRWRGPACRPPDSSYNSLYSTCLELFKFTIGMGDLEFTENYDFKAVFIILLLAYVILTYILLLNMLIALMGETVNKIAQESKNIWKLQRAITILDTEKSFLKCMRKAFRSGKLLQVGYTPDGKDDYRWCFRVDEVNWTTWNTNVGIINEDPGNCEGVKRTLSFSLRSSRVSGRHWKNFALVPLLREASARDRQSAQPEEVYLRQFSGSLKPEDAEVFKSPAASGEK
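Cells expressing TRPV1 were dye-loaded with Fluo-8 and read kinetically: 10 s baseline, 3 min after compound (agonist portion), then 2 min after EC20 capsaicin (allosteric enhancer portion). Calcium-bound dye fluorescence at 480/520 nm.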
Six1-Eya2 inh = Six1/Eya2 interaction inhibition; activity change, % (test concentration not listed); AlphaScreen GST-Six1/His-Eya2 binding, biochemical; hits give low values; control for the full effect not named in the record; AID 651725; 360,000 compounds, 0.56% hits; Q15475+O00167; in the data active = activity change below about -65%; inconclusive = about -30% to -65%; inactive = above about -30%; further: on the % scale 0 is the no-effect control and ±100 the full control effect
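Six1/Eya2 binding was read as AlphaScreen signal after compounds were pinned into GST-Six1 plus His-tagged Eya2 (5X stock 250/500 nM) in pH 8.0 Tris/NaCl/TCEP buffer, beads added, then incubated 1 h, 37 C, dark.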
D2 ag = activates the human D2 dopamine receptor; 360,000 compounds, 0.084% hits; AID 624465; DiscoveRx PathHunter D2 beta-arrestin, luminescence, 90 min; 100% = 57 uM dopamine signal; activation, % (test concentration not listed); P14416; in the data active = activation above about 40%; inconclusive = about 15% to 40%; inactive = below about 15%; further: compound concentration not given in the record; the text of the record calls up to 30% inactive
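Agonist mode: compounds alone added to overnight-plated D2 PathHunter cells for 90 min at 37 C, with 57 uM final dopamine (EC100) defining full response. Beta-arrestin recruitment detected by chemiluminescent reagent, read after 1 h at ambient temperature.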
PINK1 expr mod = changes PINK1 expression | AID 624263 | 410,000 compounds, 0.2% hits | PINK1 immunofluorescence, high-content cytometry, 24 h | Potency, µM (series often up to 76.6 µM), without a hit: top-dose activation (PINK1 increase), most hits filed as activators; active = well fitted activation curve with a large enough effect; inconclusive = small, poorly fitted or top-dose-only effect; inactive = flat fitted curve, though single readings scatter; cell line not stated here;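 further: potency means the concentration at half of the fitted maximal effect; % of control where 0% means no effect; nearly all actives have a fitted effect of over 65% in size; a mitochondrial uncoupler was the plate control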
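Readout is PINK1 immunofluorescence, quantified alongside mitochondrial, cell and nuclear markers by laser-scanning microplate cytometry. Cells from a stable line were exposed to compound titrations (5 concentrations) for 24 hours, with CCCP controls.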
D2 PAM = human D2 receptor positive allosteric modulation. P14416. DiscoveRx D2 beta-arrestin cells, luminescence, 90 min; 100% = 57 uM dopamine signal. potentiation, % (no concentration beside the values). 360,000 compounds, 0.23% hits; active = potentiation of 50% or more; inconclusive = 30% to 50%; inactive = 30% or less;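 further: compound concentration not given in the record; tested on top of an EC20 dose of dopamine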
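D2 cells co-treated with compound plus 50 nM dopamine (EC20) for 90 min at 37 deg C to detect potentiation. Beta-arrestin recruitment was read as enzyme-fragment luminescence after 1 h at ambient temperature. Full response was set by 57 uM dopamine.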
* marks the source's active call; other numbers are inactive results; ? = inconclusive; . = not tested or not shown; [ ] = another dose, or the depositor's remark. Rows were taken by chance; 3.7% or so of the library scored in one or more.

SMILES	Sfp PPTase inh	CtBP-E1A inh	TRPV1 potentiator	Six1-Eya2 inh	D2 ag	PINK1 expr mod	D2 PAM
Cc1ccc(C)c(NC(=O)CCN2CCCC(C)C2)c1 (centres undefined)	-5%	.	4	-2	-0.5	2.4%	-62
O=C1CC(c2cccc(Cl)c2)c2cc3c(cc2N1)CCC3 (centres undefined)	-1%	-4	-14	-8	-0.3	8.1%[38.3 µM]	-12
Cc1nc2cc(OCc3cc(C(=O)NC(C)c4cn(C)nc4C)no3)ccc2s1 (centres undefined)	26%	-1	-4	-7	2.7	-0.8%	-10
O=C(NCCC1=CCCCC1)C1CCCN(S(=O)(=O)c2ccc(F)cc2)C1 (centres undefined)	18%	1	-19	12	2.0	0.2%	-10
COc1ccc(CNC(=O)c2ccc3c(=O)n(-c4ccccc4)c(=O)[nH]c3c2)cc1	23%	-5	-4	21	-6.0	12%	-5
O=C(NCc1ccc(F)cc1)C(=O)Nc1nc(C23CC4CC(CC(C4)C2)C3)cs1	5%	-1	2	2	3.8	16%	-3
O=c1[nH][nH]c2ccccc2c1=O	18%	-3	0	-1	-1.5	0.3%	-6
COc1ccc(CSCC(=O)Nc2ccc(S(=O)(=O)N3CCCCCC3)cc2)cc1	4%	-5	-12	2	3.0	0.3%	-8
CCN1CCN(c2ncnc3c2sc2nc(N4CCOCC4)c4c(c23)CCC4)CC1	11%	-2	-1	6	0.5	0.4%	0
CC(C)c1c(O)nc(SCC(=O)N2CCCCC2)[nH]c1=O	8%	4	23	2	-1.5	-2.0%	-2
Cc1ccc(NC(=O)CSc2ccc3nnc(-c4ccccn4)n3n2)cc1	12%	?	-2	-22	-1.9	1.9%	-7
O=C(N/N=C/c1ccc2c(c1)OCO2)c1cccc2ccccc12	26%	6	5	-2	1.5	15%	-6
C(=N\N(Cc1ccccc1)c1ccccc1)/c1cccnc1	-9%	-9	-1	-13	-8.3	3.7%	-13
CCOc1ccc(N(CC(=O)NCc2ccco2)C(=O)CCC(=O)Nc2ccccn2)cc1	16%	2	2	-5	-0.4	2.6%	-19
COC(=O)c1ccccc1N=Nc1c(N)[nH][nH]c1=O	14%	-28	5	-2	-5.6	-0.5%	10
Cc1cc(-c2ccccc2C(=O)NC2CCCCC2)on1	-1%	6	-2	9	-2.4	1.4%	-1
COc1ccc(CC(=O)N(Cc2ccccc2)c2ccc(C)cc2)cc1S(=O)(=O)N1CCOCC1	.	-3	-2	-11	-5.6	-1.8%	19
CCC(CC)C(=O)c1c[nH]c(C(=O)NCc2ccccc2OC)c1	13%	-12	26	-11	3.1	-1.1%	-5
CCC(=O)Nc1cccc(NC(=O)c2ccc(Br)cc2)c1	9%	-5	-11	14	-4.4	13%	-2
CCCCCc1nnc(NC(=O)c2cccc(S(=O)(=O)N3CCOCC3)c2)s1	.	-4	-14	3	0.2	2.4%	-10
C=CCOC(=O)c1ccccc1C(=O)OCC=C	.	24	.	19	-3.9	2.2%	-20
CC1CCN(S(=O)(=O)c2ccc(C(=O)OCc3ccc4c(c3)OCO4)cc2)CC1	-2%	4	-2	6	-2.1	20%[38.3 µM]	-4
CCOc1ccc(NC2=C(OC)C(=O)c3ccccc3C2=O)cc1	-24%	?	-5	-75*	-1.3	2.4%	-9
O=P(c1ccccc1)(c1ccccc1)C(c1ccccn1)P(=O)(c1ccccc1)c1ccccc1	14%	-25	-1	-13	-5.9	-2.0%	3
COc1cccc(C2C(C(=O)c3ccco3)=C(O)C(=O)N2CCCN2CCOCC2)c1OC (centres undefined)	.	-23	.	2	-1.0	0.5%	-7

The list continues.
SMILES	Sfp PPTase inh	CtBP-E1A inh	TRPV1 potentiator	Six1-Eya2 inh	D2 ag	PINK1 expr mod	D2 PAM
Cn1cccc1C(=O)OCC(=O)NC1CCS(=O)(=O)C1 (centres undefined)	22%	0	0	0	-1.2	1.2%	-7
Nc1ncnc2c1ncn2[C@@H]1O[C@H](CN2CCCS2(=O)=O)[C@@H](O)[C@H]1O	.	4	.	2	-2.3	0.0%	-9
Cc1cccc(NCc2ccc(N(C)C)cc2)n1	4%	?	23	?	0.8	0.4%	-6
O=C(N/N=C/c1ccsc1)c1cc(-c2cccs2)nc2ccccc12	12%	-19	-7	-7	-2.4	15%	-10
O=C(O)Cc1sc(-c2ccccc2Cl)nc1-c1ccccc1	15%	-1	-1	4	-3.9	-0.4%	0
Cc1[nH]c2ccccc2c1/C=N\NC(=O)c1ccco1	1%	-3	2	-5	-2.4	-0.6%	-17
O=C(O)C1CCN(C(=O)COc2ccc(Br)cc2)CC1	15%	0	-10	8	0.9	0.3%	3
CCC(c1nnnn1Cc1ccco1)N(CCN1CCOCC1)Cc1cc2cc(C)ccc2[nH]c1=O (centres undefined)	45µM*	-3	-7	-12	-3.6	-3.5%	-19
CC1CN(S(=O)(=O)c2ccc(C(=O)NC3CCCCC3)cc2)CC(C)O1 (centres undefined)	.	13	.	7	0.0	0.5%	-6
O=C(Nc1ccccc1F)c1ccc([N+](=O)[O-])s1	1%	-24	-26	-19	8.7	?	14
COc1ccc(OC)c(NC(=O)C2CCN(c3ncccn3)CC2)c1	1%	2	7	0	-1.2	0.5%	-7
Cc1nn(-c2ccc(F)cc2)c(Cl)c1/C=N/NC(=O)c1cccc(S(=O)(=O)N2CCCC2)c1	7%	-14	-1	0	-5.0	9.1%	-10
Cc1ccc(-c2nc(C#N)c(N3CCC(C(N)=O)CC3)o2)cc1	10%	-4	-12	-9	-5.0	-1.1%	-6
COc1ccc(C(O)c2ncc(-c3ccccc3)[nH]2)cc1 (centres undefined)	.	21	.	10	-7.7	0.3%	-6
COc1ccc(C(O)C(CN2CCOCC2)c2ccccc2)cc1F (centres undefined)	-11%	0	-2	6	-1.8	-0.6%	-9
O=C(NCCC(=O)N(CCc1ccccc1)Cc1ccccc1)c1ccccc1Cl	.	-1	-5	7	-5.9	0.7%	-25
COc1ccc(CNC(=O)CCN2C(=S)NC(C)(C)CC2C)cc1 (centres undefined)	12%	-1	0	0	-2.8	0.2%	-6
O=C(Nc1ccc(Cl)cn1)c1ccc(Oc2ccccc2)cc1	4%	18	0	14	0.7	2.6%	-3
O=C(Nc1cccc(S(=O)(=O)NC2=NCCCCC2)c1)c1cc(-c2ccc(Cl)cc2)nc2ccccc12	24%	0	-4	-1	-0.9	-0.5%	10
Cc1ccc(NC(=O)c2cc(S(=O)(=O)N3CCCC3)cn2C)cc1C	23%	15	-1	14	-1.1	10%	0
CC(C)CN(CC(C)C)S(=O)(=O)N1CCC(C(=O)NCc2ccc3c(c2)OCO3)CC1	20%	.	15	1	3.2	0.3%	-6
COc1cccc(CN(C)CCCn2cnc(C(=O)Nc3ccc(C)c(C)c3)n2)c1	.	-3	.	-2	-0.9	-0.2%	-12
CCOC(=O)CCNC(=O)N1CCCC(CNS(=O)(=O)Cc2ccccc2)C1 (centres undefined)	6%	20	-7	5	-14	0.9%	-22
CN1C(=O)[C@H]2[C@@H](/C=C/c3ccccc3)N3C(=O)CN(CCO)C(=O)[C@@]3(C)[C@H]2C1=O	4%	4	-7	1	-6.4	0.6%	-11
COc1ccc(C(=O)c2oc3ccc(OC)cc3c2NC(C)=O)cc1	19%	12	-10	2	-3.9	13%	-1

Among those listed so far, these have bromine:
SMILES	Sfp PPTase inh	CtBP-E1A inh	TRPV1 potentiator	Six1-Eya2 inh	D2 ag	PINK1 expr mod	D2 PAM
CCC(=O)Nc1cccc(NC(=O)c2ccc(Br)cc2)c1	9%	-5	-11	14	-4.4	13%	-2
O=C(O)C1CCN(C(=O)COc2ccc(Br)cc2)CC1	15%	0	-10	8	0.9	0.3%	3

(next part)
SMILES	Sfp PPTase inh	CtBP-E1A inh	TRPV1 potentiator	Six1-Eya2 inh	D2 ag	PINK1 expr mod	D2 PAM
c1ccc(-c2nc3nc4ccccc4nc3n2CC2CCCO2)cc1 (centres undefined)	14%	4	-13	-3	-0.2	-1.7%	6
O=C(NCCCO)c1cc2c(cn1)[nH]c1ccccc12	6%	1	4	-14	-0.5	1.4%	8
CCc1cc2c(SCC(=O)N(CC)c3c(N)n(Cc4ccccc4)c(=O)[nH]c3=O)ncnc2s1	16%	10	3	10	4.1	2.6%	-4
CC(=O)CCC(=O)OCC(=O)c1ccc(C(F)(F)F)cc1	12%	.	1	1	-22	-0.1%	-29
Cc1noc(C)c1CSc1nc2ccccc2c(=O)n1-c1ccc(Cl)cc1	-3%	3	-15	-11	0.3	2.3%[38.3 µM]	-11
Cc1ccc(S(=O)(=O)N2CCC(C(=O)N[C@@H](C)C(=O)NCc3ccccc3)CC2)cc1	12%	5	10	-1	-2.5	6.6%	-12
COc1cccc(NC(=O)c2ccc3c(c2)OCCO3)c1	16%	4	-20	3	-0.3	-0.3%	4
CCCCn1ccnc1C(=O)c1ccc(S(=O)(=O)N(CCOC)CCOC)cc1	-6%	1	1	6	0.6	-1.3%	3
N/C(=N/OC(=O)c1ccccc1Cl)c1nonc1N	-11%	1	15	1	1.9	-0.9%	3
COc1cc(CC(NC(C)=O)C(=O)NC2CCN(C(=O)Nc3ccccc3Cl)CC2)cc(OC)c1 (centres undefined)	5%	1	3	11	1.6	-0.4%	-9
O=C(Nc1ccc(Cl)c(C(F)(F)F)c1)[C@@H]1CC=C[C@@H]2CCN(C3CC3)C(=O)[C@@H]21	.	1	.	3	-0.7	-0.5%	-61
O=C(O)CCN1CCc2ccccc2C1c1cccs1 (centres undefined)	-8%	0	6	8	-0.3	1.4%	3
COc1ccc(N(CC(=O)NCCSc2ccccc2)S(=O)(=O)c2ccccc2)c(OC)c1	.	5	.	-11	10	-1.0%	-18
c1ccc(Nc2nc(N3CCCCC3)nc(N3CCCCC3)n2)cc1	3%	9	-12	10	-1.9	22%	-5
CN1C(=O)[C@H]2[C@@H](C3CC3)N3C(=O)CN(CC4CC4)C(=O)[C@@]3(C)[C@H]2C1=O	11%	0	4	30	-0.9	-0.1%	0
CC(C)CCNC(=O)c1onc(CSc2ccncc2)c1C(=O)NCCC(C)C	25%	-7	13	?	-3.0	9.2%	-8
COC(=O)c1ccc2c(=O)n(-c3ccc(OC)cc3)c(=S)[nH]c2c1	-4%	1	7	-3	-5.2	1.6%	-5

Molecules above containing a COOH group, in the order listed:
SMILES	Sfp PPTase inh	CtBP-E1A inh	TRPV1 potentiator	Six1-Eya2 inh	D2 ag	PINK1 expr mod	D2 PAM
O=C(O)Cc1sc(-c2ccccc2Cl)nc1-c1ccccc1	15%	-1	-1	4	-3.9	-0.4%	0
O=C(O)C1CCN(C(=O)COc2ccc(Br)cc2)CC1	15%	0	-10	8	0.9	0.3%	3
O=C(O)CCN1CCc2ccccc2C1c1cccs1 (centres undefined)	-8%	0	6	8	-0.3	1.4%	3
